# High-throughput results as filed in PubChem.
# MT1-MMP act inh = blockers of MT1-MMP proenzyme processing, primary screen, HT1080 RFP-PRO-GFP cells, GFP/RFP fluorescence | Matrix metalloproteinase-14 (Homo sapiens), P50281 | GFP/RFP ratio fluorescence, overnight; percent of plate control window, DMSO zero | GFP/RFP ratio change, % at 20 µM | 360,000 tested, 0.061% active;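 active = GFP/RFP ratio change of at least 30% with cell ATP level not reduced by more than half and red fluorescence within 50% of control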; also: strong numbers were not always called active
#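 Material: RFP-PRO-GFP reporter HT1080 cells. Dosing: single-point 20 µM compound, 1% DMSO. Controls: DMSO and RFP-L50D-GFP cell wells. Timing: cells overnight before dosing, compound overnight, 37 °C, 5% CO2. Measure: GFP/RFP fluorescence ratio.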
# PABP polyA inh = PABP poly(A) RNA binding inhibitors, primary screen, biochemical, fluorescence polarization, uHTS; Polyadenylate-binding protein 1 (Homo sapiens), P11940; inhibition, % at 35 µM; 290,000 tested, 1% active; AID 2014, 2009;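 active = 50% or more with normal probe brightness, or confirmed in later tests; inconclusive = above 50% with abnormal brightness, or retests that disagree; inactive = below 50% or failed in later tests; about a fifth of its hits are not listed in these tables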;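 also: calls also rest on retests at 20 µM and on dose response follow-up; controls were probe without protein and protein plus probe with vehicle; some compounds called inactive have numbers as strong as hits; many hits fall short of the cut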
# CSC inhib = cancer stem cell viability inhibitors, primary screen, luminescence | cancer stem cell-like cells viability | inhibition, % at 7.5 µM | AID 2717, 2010 | 300,000 tested, 1.1% active;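 active = mean at 75% or more and at least half the replicates too; inconclusive = mean and replicates disagree; tested in HMLE shEcad cells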;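 also: 0% = median of negative and 100% = median of positive control wells; the first replicate is given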
# Env fusion inh = inhibitors of HIV-1 Env-driven cell-cell fusion, primary screen, HeLa-JRFL effector, CEM21 target cells, luciferase; AID 651610, 2012; 360,000 tested, 1.1% active; inhibition, % at 12.3 µM;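 active = mean replicate inhibition score of at least 50 and every replicate individually at or above 50; inconclusive = only one of the two criteria met; inactive = mean below 50 and not all replicates reaching 50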;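 also: 0% = plate neutral controls and 100% = maraviroc near 300 nM; one replicate is shown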
# eIF4H FP inh = human eIF4H binding inhibitors, primary screen, translation initiation inhibitor project, biochemical, uHTS, fluorescence polarization. Eukaryotic translation initiation factor 4H (Homo sapiens), Q15056. eIF4H fluorescence polarization binding assay. inhibition, % at 35 µM. 290,000 tested, 0.94% active. AID 2012, 2009;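 active = 50% or more with normal probe brightness, or confirmed in later tests; inconclusive = above 50% with abnormal brightness, or retests that disagree; inactive = below 50% or failed in later tests; about a fifth of its hits are not listed in these tables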;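 also: calls also rest on retests at 20 µM and on dose response follow-up; 0% = protein and probe with vehicle and 100% = probe without protein; strong numbers were not always called active; many hits fall short of the cut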
# Yeast UUG start = modulators of yeast start codon fidelity, primary screen, whole organism, S. cerevisiae, single point, plate reader | S. cerevisiae UUG-firefly luciferase reporter, luminescence/redox ratio | activity score, % at 18.7 µM | 350,000 tested, 0.13% active;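 active = replicate mean at a twofold rise or more, about +100% in these data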;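 also: firefly luciferase made from a UUG start codon reports start codon fidelity; reporter light over untreated wells divided by growth signal over untreated wells; some hits fall short of that in this replicate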
# Rce1 inhib = yeast Rce1p protease inhibitors, primary screen, biochemical, fluorescence, cell-free homogeneous; calls only; 290,000 tested, 0.27% active; yeast membranes, quenched prenylated peptide cleavage fluorescence; CAAX prenyl protease 2 (Saccharomyces cerevisiae (strain ATCC 204508 / S288c)), Q03530;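 active = fall in fluorescence gain of 50% or more versus controls, with final raw signal at or below 3038400; inconclusive = same 50% fall but final raw signal above 3038400; inactive = fall in fluorescence gain under 50%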;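 also: plate controls were neutral control wells for no effect and wells lacking membranes for full effect; tested at 10 µM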
# Target sequence (Q03530 whole entry, looked up): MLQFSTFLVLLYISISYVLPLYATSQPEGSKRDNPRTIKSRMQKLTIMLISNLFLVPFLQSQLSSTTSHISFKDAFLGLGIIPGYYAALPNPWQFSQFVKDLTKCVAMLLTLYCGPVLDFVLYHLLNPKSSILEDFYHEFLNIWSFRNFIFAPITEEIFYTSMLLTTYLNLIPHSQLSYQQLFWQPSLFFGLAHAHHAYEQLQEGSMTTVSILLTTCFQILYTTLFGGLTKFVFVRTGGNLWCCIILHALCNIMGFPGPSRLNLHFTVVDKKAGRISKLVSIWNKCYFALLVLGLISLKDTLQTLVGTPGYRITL
# eIF4H FP inh retest = further read-out of eIF4H FP inh, marked with its call; inhibition, %; compound at 20 µM; confirmation average;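 mean of two retest wells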
# PABP polyA inh retest = also measured in PABP polyA inh; calls as there; inhibition, %; compound at 20 µM; confirmation repeats;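 mean of two retest wells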
# MT1-MMP act inh RFP = recorded beside MT1-MMP act inh, whose call it bears; RFP signal change, %; measured here: RFP expression control read;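 0 = vehicle wells; hits needed this value within 50% of zero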
# * = called active by the depositor; i = inactive; ? = inconclusive; / = not tested or not shown. An excerpt. The share of hits here may be higher or lower than overall.
SMILES,MT1-MMP act inh,MT1-MMP act inh RFP,PABP polyA inh,CSC inhib,Env fusion inh,eIF4H FP inh,Yeast UUG start,Rce1 inhib,others
COc1ccccc1Nc1nc(N(C)c2ccccc2)nc(N)c1[N+](=O)[O-],3,6,9,-5,/,3,0,i,
Cc1ccc(S(=O)(=O)Nc2cccc3c2CCCC3)cc1,0,-3,-6,2,-3,-4,/,i,
CN1CCN(c2ccc(NC(=O)c3ccc(-c4ccccc4F)o3)cc2)CC1,2,-2,/,/,-70,/,-22,/,
OCC1CCCN(c2nc(CN3CCCCC3)nc3scc(-c4ccccc4)c23)C1 (centres undefined),-6,-4,1,11,13,-3,/,i,
CCOc1cc(CN2CCC(N3CCC(C(=O)NC4CC4)CC3)CC2)ccc1O,2,5,/,/,-16,/,-21,/,
O=[N+]([O-])c1ccc(NCc2ccccn2)nc1,0,5,-9,-2,-2,5,-16,i,
COc1ccc(NC(=O)NCCc2c[nH]c3ccccc23)c(OC)c1,0,-2,-5,2,-4,-1,-1,i,
O=C(Cn1cnc2ccccc2c1=O)c1ccc(OC(F)F)cc1,1,2,2,5,-16,-5,-7,i,
CCOC(=O)C(C)c1c(C)[nH]c(=S)[nH]c1=O (centres undefined),-1,3,7,6,/,-14,/,i,
O=C(COC(=O)CCN1C(=O)C2CC=CCC2C1=O)Nc1ccc(Cl)cc1F (centres undefined),3,6,/,/,-16,/,-11,/,
CS(=O)(=O)OCCCCOS(C)(=O)=O,-3,-2,/,-4,3,/,-15,i,
O=C(O)c1ccccc1-c1ccccc1C(=O)NNc1ccccc1,-6,2,4,2,1,-4,5,i,

# Continued, overlapping the part above by 2 compounds.
SMILES,MT1-MMP act inh,MT1-MMP act inh RFP,PABP polyA inh,CSC inhib,Env fusion inh,eIF4H FP inh,Yeast UUG start,Rce1 inhib,others
CS(=O)(=O)OCCCCOS(C)(=O)=O,-3,-2,/,-4,3,/,-15,i,
O=C(O)c1ccccc1-c1ccccc1C(=O)NNc1ccccc1,-6,2,4,2,1,-4,5,i,
CCOC(=O)/C(=N/Nc1ccccc1)Sc1nnnn1-c1ccc(C)cc1,/,/,5,-3,/,6,/,i,
CCOc1ccc(N(C(=O)c2cnsn2)C(C(=O)NC2CCCCC2)c2ccncc2)cc1 (centres undefined),5,7,23,4,48,2,/,/,
O=C(Nc1cccc(-c2cscn2)c1)C1CCN(Cc2ccccn2)CC1,1,1,4,/,8,7,-13,i,
CC1(C(=O)NS(=O)(=O)c2cccc(OC(F)F)c2)CCN1C(=O)CC(c1ccccc1)c1ccccc1 (centres undefined),5,5,/,/,10,/,-2,/,
COc1cccc(/C=C/C(=O)NCc2cn3cc(Cl)ccc3n2)c1OC,2,4,11,0,-4,0,/,i,
CC1(C(=O)Nc2ccc3ccccc3c2)CCC(=O)N1CCOc1ccccc1 (centres undefined),4,3,/,/,20,/,5,/,
Cc1cc(C(=O)N2CCC2(C)C(=O)Nc2ccc3[nH]ncc3c2)nn1C (centres undefined),1,-3,/,/,-5,/,-25,/,
CC(C)Oc1ccc(F)cc1-c1cc(C(=O)N2CCc3ccccc3C2)[nH]n1,-1,-6,/,/,27,/,-19,/,
Cc1cc(-c2n[nH]c(=S)n2/N=C/c2cc([N+](=O)[O-])ccc2Cl)n[nH]1,3,0,-9,/,-6,-2,7,i,
Cc1ccc(N2CC(C(=O)NCc3cccs3)CC2=O)cc1C (centres undefined),-1,-5,3,-4,/,-2,-28,i,
Nc1ccccc1-c1nnc(-c2ccc(-c3ccccc3)cc2)o1,2,-4,-13,/,-317,-9,-8,i,
C=C(Cl)COc1ccc2c(CCC)cc(=O)oc2c1,4,-1,-6,-11,/,1,-1,i,
COc1ccc(CC(=O)NCCCc2ccccc2)cc1OC,1,-6,7,-8,24,-7,-12,i,
O=C(CN1CCN(S(=O)(=O)c2ccc(Br)s2)CC1)N1CCc2ccccc21,2,-4,/,/,-5,/,-18,/,
CCC1Sc2ccc(S(=O)(=O)CCC(=O)Nc3ccc(OC(F)(F)F)cc3)cc2NC1=O (centres undefined),5,-6,/,-3,16,/,-16,i,
Cc1ccc(S(=O)(=O)N2CCC(C(N)=O)CC2)c(C)c1C,-1,2,0,18,/,5,-17,i,
CC(C(C(=O)N1CCCCC1)N1CCCCC1)N1CCCCC1 (centres undefined),-3,-1,/,/,8,/,0,/,
CCC1CCc2c(sc(NC(=O)CSc3nc(-c4ccco4)cc(C(F)(F)F)n3)c2C#N)C1 (centres undefined),-6,-4,-4,8,-22,-13,-16,i,
Cn1cnnc1SCC(=O)NC1CCCN(Cc2ccccc2F)C1 (centres undefined),1,2,-9,-10,-9,-20,-17,i,
Cc1nc2nc(CCc3ccccc3)nn2c(C)c1Cl,2,5,6,-3,-35,4,-3,i,
CC(C)(C)Nc1nc2nonc2nc1NC(C)(C)C,8,0,15,1,/,4,-2,i,
CN(C(=O)c1cccc(NC(=O)Cc2ccc(NC(=O)C3CCCN(C(=O)CCc4ccccc4)C3)cc2)c1)C1CC1 (centres undefined),0,-15,/,/,3,/,-16,/,
CC(C)[C@H](NC(=O)c1ccccc1F)C(=O)NCc1ccc(S(N)(=O)=O)cc1,1,0,-4,-9,12,-8,-6,i,
COc1ccccc1N1C(=O)CC(Sc2ccccc2N)C1=O (centres undefined),-3,0,4,-5,-2,4,/,i,
Cc1ccc(OCC(=O)c2cc(C)n(Cc3ccco3)c2C)c([N+](=O)[O-])n1,3,-8,41,13,0,101*,-8,i,eIF4H FP inh retest=87*;PABP polyA inh retest=34
Cc1cc(=O)[nH]c(SCC(=O)Nc2cccc(S(=O)(=O)N3CCOCC3)c2)n1,-4,-1,/,-11,-6,/,-1,/,
CCOc1cc(-c2sc(Nc3ccccc3)n[n+]2-c2ccc(F)cc2)ccc1OC,3,5,9,14,-37,3,-19,i,
CN(CC(=O)Nc1ccc(N2CCOCC2)cc1)C(=O)CCc1ccccc1Cl,/,/,/,-14,-6,/,/,i,
Cc1ccc(F)cc1-c1nc(NCC2CC2)nc2ccsc12,-3,-2,/,/,9,/,-11,/,
O=C(CCC(F)(F)F)N1CCCC(N2CCN(c3cccc(Cl)c3)CC2)C1 (centres undefined),-4,-3,/,7,7,/,7,i,
COC(=O)c1ccc(CNC(=O)Cn2cnc3c(OCc4ccccc4)ncnc32)cc1,0,-2,/,/,2,/,-12,/,
CC1=NNC(=O)/C1=C\c1cn(-c2ccccc2)nc1-c1cccs1,-16,-41,-4,81*,-271,2,/,i,
CCc1cccc(C)c1NC(=O)CO/N=C(\C)c1cc2ccccc2o1,-18,-22,-9,-5,-5,-9,-17,i,
O=C(CN1CCN(c2ccccn2)CC1)Nc1ccc(Br)cc1,3,-3,-8,-14,4,-6,-21,i,
Cc1noc(C)c1S(=O)(=O)N1CCC2(CC1)OCCO2,-8,-6,3,-10,-124,0,-7,i,
CSCCC(NC(=O)c1ccccc1Cl)C(=O)NCC(c1ccc(F)cc1)N1CCOCC1 (centres undefined),2,4,/,/,8,/,-7,/,
COC(=O)c1ccc(N2CCN(S(=O)(=O)c3c(C)cc(C)cc3C)CC2)c([N+](=O)[O-])c1,-5,-5,-11,-4,27,2,-18,i,
CN1CCN(NC(=O)CN2C(=O)/C(=C/c3ccccc3F)SC2=S)CC1,/,/,-19,1,12,7,/,/,
Cc1cc(-c2csc(NC(=O)c3ccc(S(=O)(=O)N(C)C)cc3)n2)c(C)n1-c1ccccc1,-7,3,-14,-9,?,38,/,i,
Brc1ccc(CSc2ccc3nnc(-c4ccccn4)n3n2)cc1,-11,-2,-1,/,12,-4,-24,i,
Cc1ccc(NC(=O)CN(C)CC(=O)Nc2ccc(N3CCOCC3)cc2)c([N+](=O)[O-])c1,-1,2,4,5,13,2,/,i,
Cc1ccc(N2CC(C(=O)OCC(=O)NNC(=O)c3ccccc3)CC2=O)cc1 (centres undefined),-1,2,/,-10,-52,/,-15,i,
Cc1ccc(CON=C2CCN(c3ncc(C(F)(F)F)cc3Cl)CC2)cc1,-5,0,-2,17,-20,1,-14,i,
C/C(=C\c1ccccc1)CN1CCN(c2ccccc2F)CC1,2,0,10,16,/,2,30,i,
CN1CCN(C(=O)c2ccc3c(=O)n(Cc4ccco4)c(=S)[nH]c3c2)CC1,-3,-4,0,6,3,-10,-17,i,
CCN(CCNC(=O)c1cc(C)nn1-c1ccccc1)c1ccccc1,1,-1,-6,-8,-9,-7,-4,i,
Cc1ccc(C)c(NC(=O)CCC(=O)NNC(=O)c2cccs2)c1,0,-1,3,-6,/,7,/,i,
CC(=O)Nc1ccc(C(=O)N2CCCC(c3cc(C(=O)NCc4ccccc4)no3)C2)cc1 (centres undefined),4,1,/,/,13,/,-10,/,
CCOC(=O)CN(C)Cc1cn[nH]c1-c1ccc2cc(OC)ccc2c1,0,-2,-2,-2,-1,-2,-7,i,
O=C(NCCc1cccs1)C1CCC(=O)N(CCc2cccc(F)c2)C1 (centres undefined),0,1,8,-13,2,8,-5,i,
CSc1ncccc1C(=O)OCC(=O)c1cc(C)n(C)c1C,-1,-2,/,1,/,/,-11,/,
Nc1ccc(-c2nc3ccccc3[nH]2)cc1,4,5,-11,5,-52,-5,-19,?,
CCn1c(SCc2nc(-c3cccs3)no2)nnc1-c1c[nH]c2ccccc12,-3,-14,1,-7,/,-6,-24,i,
Brc1cccc(-c2nnc(SCc3nc4ccccc4[nH]3)o2)c1,0,0,13,13,/,-4,-21,i,
CC(=O)Nc1ccc(N(C(=O)c2cnccn2)C(C(=O)NC2CCCCC2)c2ccc(F)cc2)cc1 (centres undefined),5,6,-6,/,0,-1,-30,i,
Cc1nn(-c2ccccc2)c2sc(C(=O)OCn3nnc4ccccc4c3=O)cc12,3,2,2,0,6,-2,-22,i,
CC(NC(=O)COC(=O)C1CC1C)c1ccccc1 (centres undefined),8,2,/,-9,/,/,-17,/,
Cc1ccc(/C=C2\SC(N)=NC2=O)s1,-19,-2,-1,/,/,6,-8,i,
CCCN(C(=O)COC(=O)Cn1c(=O)oc2ccccc21)c1c(N)n(Cc2ccccc2)c(=O)[nH]c1=O,-6,3,/,5,3,/,/,i,
COc1ccc(CC(=O)Oc2cc(C)ccc2C)cc1,3,4,-2,-14,0,7,/,i,

# Continuation.
SMILES,MT1-MMP act inh,MT1-MMP act inh RFP,PABP polyA inh,CSC inhib,Env fusion inh,eIF4H FP inh,Yeast UUG start,Rce1 inhib,others
C/C(=N\Nc1ccc(C(=O)O)cc1)c1ccc(Cl)s1,1,0,-6,-9,-61,-6,-32,i,
CCOC(=O)/C(=C\c1ccc(OC(F)F)cc1)C1=Nn2c(nnc2-c2ccc(Cl)cc2)SC1,-31,-40,4,100*,/,1,/,i,
CC1CCN(C(=O)CSc2nnc3ccccn23)CC1,4,-1,/,1,/,/,-16,/,
C=CCNC(=S)NNC(=O)C(CC(C)C)CC(C)O (centres undefined),6,0,-8,-10,-1,9,-8,i,
